NOMO-1 viab – STK33 inhibitor candidate reducing NOMO-1 cell viability; NOMO-1 AML viability, CellTiter-Glo luminescence, 72 h; inhibition, % (concentration not given with the values); 37,000 tested, 7.5% active;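 active = most replicates above 80%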;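 note: wells of about 30 µL received 25 nL stock; 0% = median of vehicle wells and 100% = reference inhibitor level; the first replicate is given; inactives centre near 10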
* hit, by the source's call.

Start of the listing, in advance (four entries):
For O=C(CCN1C(=O)C2C3c4ccccc4C(c4ccccc43)C2C1=O)Oc1cccc2cccnc12 (centres undefined) the results were NOMO-1 viab 118*.
C[C@H](CO)N1C[C@H](C)[C@H](CN(C)S(=O)(=O)c2cn(C)cn2)Oc2ccc(NC(=O)Nc3ccc(F)cc3)cc2CC1=O was read as NOMO-1 viab -18.
CCNc1nc(SCC(=O)NC(=O)NCc2ccccc2)nc2sc3c(c12)CCN(C)C3 was read as NOMO-1 viab 71.
Cc1ccccc1NS(=O)(=O)c1ccc(NC(=O)c2nc3ncccn3n2)cc1 was read as NOMO-1 viab 10.

The whole of this part, from the first entry:
For O=C(CCN1C(=O)C2C3c4ccccc4C(c4ccccc43)C2C1=O)Oc1cccc2cccnc12 (centres undefined) the results were NOMO-1 viab 118*.
C[C@H](CO)N1C[C@H](C)[C@H](CN(C)S(=O)(=O)c2cn(C)cn2)Oc2ccc(NC(=O)Nc3ccc(F)cc3)cc2CC1=O was read as NOMO-1 viab -18.
CCNc1nc(SCC(=O)NC(=O)NCc2ccccc2)nc2sc3c(c12)CCN(C)C3 was read as NOMO-1 viab 71.
Cc1ccccc1NS(=O)(=O)c1ccc(NC(=O)c2nc3ncccn3n2)cc1 was read as NOMO-1 viab 10.
Screening O=C(CSc1nc(-c2ccccc2)cc(C(F)(F)F)n1)c1ccc(Br)cc1 returned NOMO-1 viab 16.
Screening COc1ccc(NC(=O)N(C)C[C@@H]2Oc3ccc(NC(=O)Nc4ccc(C(F)(F)F)cc4)cc3CC(=O)N([C@H](C)CO)C[C@H]2C)cc1 returned NOMO-1 viab 35.
Screening COc1ccc(NC(=O)C23CC4CC(C2)CC(C(=O)Nc2ccc(OC)cc2OC)(C4)C3)c(OC)c1 returned NOMO-1 viab 20.
Screening C[C@@H]1CN([C@@H](C)CO)C(=O)Cc2cc(NC(=O)CCN3CCOCC3)ccc2O[C@@H]1CN(C)S(C)(=O)=O returned NOMO-1 viab 6.
Screening C[C@@H]1CCCCO[C@@H](CN(C)CC2CCCCC2)[C@@H](C)CN([C@H](C)CO)C(=O)c2cc(NS(=O)(=O)c3ccccc3)ccc2O1 returned NOMO-1 viab 2.
Screening CSC(=NS(=O)(=O)c1ccccc1)SC returned NOMO-1 viab 23.
Screening Cc1ccc(OCC(=O)NC(=S)Nc2cc(-c3nc4ncccc4o3)ccc2C)cc1 returned NOMO-1 viab -13.
C[C@H](CO)N1C[C@H](C)[C@@H](CN(C)S(=O)(=O)c2ccccc2)Oc2c(cccc2N(C)C)C1=O was read as NOMO-1 viab -18.

An excerpt of the results above, for reference:
Screening C[C@@H]1CCCCO[C@@H](CN(C)CC2CCCCC2)[C@@H](C)CN([C@H](C)CO)C(=O)c2cc(NS(=O)(=O)c3ccccc3)ccc2O1 returned NOMO-1 viab 2.
Screening CSC(=NS(=O)(=O)c1ccccc1)SC returned NOMO-1 viab 23.
Screening Cc1ccc(OCC(=O)NC(=S)Nc2cc(-c3nc4ncccc4o3)ccc2C)cc1 returned NOMO-1 viab -13.
C[C@H](CO)N1C[C@H](C)[C@@H](CN(C)S(=O)(=O)c2ccccc2)Oc2c(cccc2N(C)C)C1=O was read as NOMO-1 viab -18.

The main list resumes, starting 2 compounds before the break.
Screening Cc1ccc(OCC(=O)NC(=S)Nc2cc(-c3nc4ncccc4o3)ccc2C)cc1 returned NOMO-1 viab -13.
C[C@H](CO)N1C[C@H](C)[C@@H](CN(C)S(=O)(=O)c2ccccc2)Oc2c(cccc2N(C)C)C1=O was read as NOMO-1 viab -18.
For C[C@@H]1CCCCO[C@H](CN(C)C(=O)Nc2ccc(F)cc2)[C@@H](C)CN([C@H](C)CO)C(=O)c2cc(NC(=O)c3ccccc3)ccc2O1 the results were NOMO-1 viab 22.
For Cc1cc2ncn(CC(O)COc3c(C)cccc3C)c2cc1C (centres undefined) the results were NOMO-1 viab 34.
`O=C(Cn1ccc([N+](=O)[O-])n1)NCc1cccnc1` gave NOMO-1 viab 22.
C[C@@H]1CN([C@H](C)CO)C(=O)Cc2cc(NC(=O)Nc3ccc(C(F)(F)F)cc3)ccc2O[C@@H]1CN(C)C(=O)NC1CCCCC1 was read as NOMO-1 viab 112*.
For COC(=O)c1ccccc1NC(=O)CSc1nnnn1-c1ccc(C)cc1C the results were NOMO-1 viab 6.
Screening Cc1ccc(S(=O)(=O)N(C)CC(=O)Nc2cccnc2)cc1 returned NOMO-1 viab -27.
`C[C@H]1CN([C@@H](C)CO)C(=O)c2cccc(NC(=O)Nc3ccc4c(c3)OCO4)c2O[C@@H]1CN(C)Cc1ccc2c(c1)OCO2` gave NOMO-1 viab 6.
For C[C@H]1CN([C@@H](C)CO)C(=O)c2cccc(NS(=O)(=O)c3ccc(Cl)cc3)c2O[C@@H]1CN(C)C(=O)Nc1ccc(F)cc1 the results were NOMO-1 viab 10.
Screening CCn1c(SCC(=O)Nc2cc(Cl)c(Cl)cc2Cl)nnc1-c1cccc(C)c1 returned NOMO-1 viab 19.
Screening C[C@@H]1CN([C@@H](C)CO)C(=O)c2cc(NC(=O)Cn3cnnn3)ccc2O[C@@H]1CN(C)Cc1ccc(C(F)(F)F)cc1 returned NOMO-1 viab 20.
For Cc1ccc(NC(=O)CSc2nc3ccc([N+](=O)[O-])cc3s2)cc1Cl the results were NOMO-1 viab 22.
`C[C@@H]1CN([C@H](C)CO)C(=O)Cc2cc(NC(=O)Nc3ccc4c(c3)OCO4)ccc2O[C@@H]1CN(C)Cc1ccc(Oc2ccccc2)cc1` gave NOMO-1 viab 119*.
COc1ccc(S(=O)(=O)N(C)C[C@@H]2Oc3ccc(NS(=O)(=O)c4cccs4)cc3C(=O)N([C@@H](C)CO)C[C@@H]2C)cc1 was read as NOMO-1 viab 22.
`Cc1cccc(NC(=O)C(Cc2ccccc2)N2C(=O)c3cc(Cl)c(Cl)cc3C2=O)c1` (centres undefined) gave NOMO-1 viab 3.
For C[C@H]1CN([C@@H](C)CO)C(=O)c2cc(NS(=O)(=O)c3cn(C)cn3)ccc2O[C@@H]1CN(C)S(=O)(=O)c1ccc(F)cc1 the results were NOMO-1 viab 13.
`C[C@@H]1O[C@@H](O[C@H]2[C@@H](O)[C@@H](C)O[C@@H](O[C@H]3[C@H](O)[C@@H](O)[C@H](O[C@H]4CC[C@@]5(C)C(CC[C@]6(C)C5C=CC5=C7CC(C)(C)CC[C@]7(CO)CC[C@]56C)[C@]4(C)CO)O[C@@H]3CO)[C@@H]2O[C@@H]2O[C@H](CO)[C@@H](O)[C@H](O)[C@H]2O)[C@H](O)[C@H](O)[C@H]1O` (some centres undefined) gave NOMO-1 viab 23.
`Nc1nc(SCC(=O)c2ccccc2)nc2sc3c(c12)CCC3` gave NOMO-1 viab 7.
For C[C@@H]1CN([C@H](C)CO)C(=O)c2cccc(NC(=O)c3ccc(-c4nccs4)cc3)c2O[C@@H]1CN(C)S(=O)(=O)c1cccs1 the results were NOMO-1 viab 14.
Screening COc1cccc([C@H]2C(C#N)=C(N)C(C#N)(C#N)C3=CCC(C)C[C@@H]32)c1 (some centres undefined) returned NOMO-1 viab 127*.
For C[C@@H]1CN([C@H](C)CO)C(=O)Cc2cc(NC(=O)Nc3ccc4c(c3)OCO4)ccc2O[C@@H]1CN(C)C the results were NOMO-1 viab 18.
`C[C@H](CO)N1C[C@H](C)[C@H](CN(C)S(C)(=O)=O)Oc2ccc(NC(=O)Cn3cnnn3)cc2C1=O` gave NOMO-1 viab -17.
`COC(=O)c1cc(C)sc1NC(=S)NC(C)c1cn(C)nc1C` (centres undefined) gave NOMO-1 viab -12.
Screening CNC[C@H]1OCCCC[C@@H](C)Oc2ccc(NC(=O)c3ccccc3)cc2C(=O)N([C@H](C)CO)C[C@@H]1C returned NOMO-1 viab 6.
`C[C@H]1CN([C@@H](C)CO)C(=O)c2cc(NS(=O)(=O)c3ccccc3)ccc2O[C@H]1CN(C)Cc1ccc(Cl)c(Cl)c1` gave NOMO-1 viab 73.
COc1ccc(OC)c(NC(=O)COc2cc(C)c(Br)cc2C)c1 was read as NOMO-1 viab -2.
For COc1ccc(N(Cc2cc3ccccc3[nH]c2=O)C(=O)c2cccc(OC)c2)cc1 the results were NOMO-1 viab -11.
Screening CCCc1cc(=O)[nH]c(SCC(=O)Nc2cc(C)cc(C)c2)n1 returned NOMO-1 viab 2.
`O=C(CSc1nnc(-c2cccs2)n1-c1ccccc1Cl)Nc1cccc(C(=O)O)c1` gave NOMO-1 viab -9.
`COC(=O)CCN(C(=O)c1ccc(OC(C)=O)cc1)c1ccccn1` gave NOMO-1 viab 104*.
For Cc1ccc(NC(=O)COc2ccccc2)c(NC(=O)c2ccc(Cl)cc2)c1 the results were NOMO-1 viab 12.
For C[C@H](CO)N1C[C@H](C)[C@H](CN(C)Cc2ccc(-c3ccccc3)cc2)Oc2ccc(NC(=O)Nc3cccc4ccccc34)cc2C1=O the results were NOMO-1 viab 120*.
Cc1cc(C(=O)Nc2cccc3c2O[C@@H](CN(C)Cc2ccc4c(c2)OCO4)[C@H](C)CN([C@@H](C)CO)C3=O)n(C)n1 was read as NOMO-1 viab 21.
For C[C@@H]1CN([C@H](C)CO)C(=O)c2cccc(NS(=O)(=O)c3cn(C)cn3)c2O[C@@H]1CN(C)Cc1ccccc1 the results were NOMO-1 viab -16.
Screening Cc1ccc(C(=O)Nc2ccc3c(c2)OCCO3)cc1 returned NOMO-1 viab 29.
`COc1ccc(NC(=O)Nc2ccc3c(c2)CC(=O)N([C@H](C)CO)C[C@H](C)[C@H](CN(C)Cc2ccc(C(=O)Nc4ccccc4N)cc2)O3)cc1` gave NOMO-1 viab 127*.
For C[C@H]1CN([C@@H](C)CO)C(=O)Cc2cc(NC(=O)c3ccncc3)ccc2O[C@H]1CN(C)CC1CC1 the results were NOMO-1 viab 0.
Screening C[C@@H]1CN([C@@H](C)CO)C(=O)c2cccc(NC(=O)C3CCCCC3)c2O[C@@H]1CN(C)C(=O)Nc1ccc2c(c1)OCO2 returned NOMO-1 viab -7.
Screening C[C@@H]1CN([C@H](C)CO)C(=O)c2cccc(NS(=O)(=O)c3ccccc3)c2O[C@H]1CN(C)Cc1ccncc1 returned NOMO-1 viab 25.
Screening C[C@@H]1CN([C@@H](C)CO)C(=O)c2cc(NC(=O)NC3CCCCC3)ccc2O[C@@H]1CN(C)Cc1ccncc1 returned NOMO-1 viab -11.
For Cc1ccc2c(c1)c1nc3ccccc3nc1n2CCN1CCOCC1 the results were NOMO-1 viab 12.
Screening C[C@@H]1CN([C@@H](C)CO)C(=O)c2cccc(NC(=O)Nc3ccc(C(F)(F)F)cc3)c2O[C@H]1CN(C)C(=O)Nc1ccc(F)cc1 returned NOMO-1 viab 117*.
COc1ccc(CN(C)C[C@@H]2Oc3ccc(NC(=O)Nc4ccccc4)cc3C(=O)N([C@@H](C)CO)C[C@H]2C)cc1 was read as NOMO-1 viab 15.
Screening O=C(COc1ccc(N2CC(C(=O)O)CC2=O)cc1)Nc1cccc(C(F)(F)F)c1 (centres undefined) returned NOMO-1 viab -9.
For O=C(CSc1nnc(-c2ccco2)n1-c1ccccc1)c1ccc2c(c1)OCCO2 the results were NOMO-1 viab 19.
COc1ccc(C)cc1NC(=O)CN(c1ccc(Br)c(C)c1)S(C)(=O)=O was read as NOMO-1 viab 9.
For O=C(CN1C(=O)/C(=C\c2ccc(F)cc2)N=C1c1ccccc1)c1ccco1 the results were NOMO-1 viab 24.
`Cc1noc(C)c1NC(=O)Nc1ccc2c(c1)C(=O)N([C@@H](C)CO)C[C@H](C)[C@@H](CN(C)Cc1ccc(Cl)c(Cl)c1)O2` gave NOMO-1 viab -1.
`CSc1cccc(NC(=O)C(C)NS(=O)(=O)c2ccc(F)cc2)c1` (centres undefined) gave NOMO-1 viab -9.
C[C@@H]1CN([C@@H](C)CO)C(=O)c2cc(NC(=O)NC3CCCCC3)ccc2O[C@@H]1CN(C)C(=O)Nc1ccc(F)cc1 was read as NOMO-1 viab 12.
For C[C@@H]1CN([C@H](C)CO)C(=O)Cc2cc(NC(=O)CCC(F)(F)F)ccc2O[C@@H]1CN(C)Cc1ccc2c(c1)OCO2 the results were NOMO-1 viab 15.
`CCOC(=O)Cc1c(C)nc2c(-c3ccccc3OC)c(C)nn2c1C` gave NOMO-1 viab 24.
`CN(C(=O)CSc1nnc(-c2ccc([N+](=O)[O-])cc2)n1C)c1ccccc1` gave NOMO-1 viab 40.
`COc1ccc(OCC(=O)Nc2cccc3ncccc23)cc1` gave NOMO-1 viab -4.
Screening COc1ccc(S(=O)(=O)Nc2ccc3c(c2)C(=O)N([C@@H](C)CO)C[C@H](C)[C@H](CN(C)S(=O)(=O)c2ccc(C)cc2)O3)cc1 returned NOMO-1 viab 12.
`COc1ccc(NC(=O)Nc2ccc3c(c2)C(=O)N([C@H](C)CO)C[C@@H](C)[C@@H](CN(C)C(=O)Nc2c(C)noc2C)O3)cc1` gave NOMO-1 viab 11.
For C[C@H]1CN([C@@H](C)CO)C(=O)Cc2cc(NC(=O)c3ccncc3)ccc2O[C@@H]1CN(C)S(=O)(=O)c1cccs1 the results were NOMO-1 viab 12.
Screening Cc1ccc(S(=O)(=O)Nc2cccc3c2O[C@H](CN(C)Cc2ccc(Oc4ccccc4)cc2)[C@@H](C)CN([C@H](C)CO)C3=O)cc1 returned NOMO-1 viab 99*.
Screening Cc1nnsc1C(=O)Nc1cccnc1 returned NOMO-1 viab 14.
`CCOc1ccc(C2C3=C(CCCC3=O)NC3=C2C(=O)CCC3)cc1` gave NOMO-1 viab 5.
C[C@@H]1CCCCO[C@H](CN(C)C(=O)Nc2ccc(C(F)(F)F)cc2)[C@@H](C)CN([C@H](C)CO)C(=O)c2cc(NC(=O)Cc3ccccc3)ccc2O1 was read as NOMO-1 viab 33.
COc1ccc(C(CC(=O)O)C(=O)O)cc1OC (centres undefined) was read as NOMO-1 viab 10.
For CCCC1C2C(=O)N(c3ccccc3)C(=O)C2ON1c1ccc(Cl)c(Cl)c1 (centres undefined) the results were NOMO-1 viab 7.
Screening C[C@@H]1CN([C@H](C)CO)C(=O)Cc2cc(NS(=O)(=O)c3ccccc3)ccc2O[C@H]1CN(C)S(=O)(=O)c1ccc(F)cc1 returned NOMO-1 viab 11.
`C[C@H](CO)N1C[C@H](C)[C@H](CN(C)S(=O)(=O)c2cccs2)Oc2ccc(NC(=O)Nc3ccc(F)cc3)cc2C1=O` gave NOMO-1 viab 21.

A portion of the library; the hit share may differ from the screen's.
